# Bioassay records: PubChem BioAssay, ICCB-Longwood Screening Facility, Harvard Medical School
# Sa growth inh: S. aureus growth inhibition; 0.53% of 170,000 active; S. aureus RN4220 growth, OD600, 20 h, 42 °C; stronger effect = lower value; relative growth, % (no concentration beside the values);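 active means growth at 42 °C up to 50% and 20 or more points under that at 30 °C, or under 10% at both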;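 further: 300 nL library stock went into each well; scaled to the means of positive and negative controls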
# HCMV NEC inh: inhibitors of HCMV UL50-UL53 nuclear egress complex interaction | inhibition, % (concentration not given with the values) | 0.15% of 190,000 active | HTRF UL50-UL53 interaction, normalized percent inhibition;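 active means both replicates at 50% or more, plus weaker picks with an unusually low signal ratio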;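 further: stock transfer was 100 nL into about 20 µL; 0% = negative control wells and 100% = wells with untagged competitor protein; inactives centre near -12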
# GIV-Gai inh: inhibitors of GIV GBA-motif binding to rat Galpha-i3 | 0.42% of 210,000 active | AID 1224905 | percent of control (FP), % (test concentration not listed) | Galpha-i3/FITC-GIV peptide fluorescence polarization, 90 min; stronger effect = lower value; scaled: aluminum fluoride 0%, vehicle 100% | P08753;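 active means replicate mean at 85% of control or lower, very high polarization wells dropped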;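 further: wells of about 15 µL received 100 nL stock; the first replicate is given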
# Target sequence (P08753 whole entry, looked up): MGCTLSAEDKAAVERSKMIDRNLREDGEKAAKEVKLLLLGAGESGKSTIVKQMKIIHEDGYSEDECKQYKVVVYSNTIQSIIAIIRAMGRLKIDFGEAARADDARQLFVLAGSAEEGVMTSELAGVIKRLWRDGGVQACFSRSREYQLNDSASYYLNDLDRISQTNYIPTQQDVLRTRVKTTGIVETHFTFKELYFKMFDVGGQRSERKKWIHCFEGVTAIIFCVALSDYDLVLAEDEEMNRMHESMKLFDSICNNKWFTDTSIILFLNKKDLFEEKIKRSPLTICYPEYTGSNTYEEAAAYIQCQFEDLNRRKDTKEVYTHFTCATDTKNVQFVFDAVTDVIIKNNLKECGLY
# Sa growth inh second temp: further read-out of Sa growth inh, marked with its call; relative growth, %; measured here: growth at 30 °C;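 optical density after 20 h as mean of two plates; 100% = untreated growth and lower means inhibition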
# * marks the source's active call; other numbers are inactive results; . = not tested or not shown; & = joins results of further samples.
# Start of the listing, in advance (7 entries):
SMILES,Sa growth inh,Sa growth inh second temp,HCMV NEC inh,GIV-Gai inh
COc1ccc(-c2nc(CN3CCN(C(=O)Nc4ccccc4)CC3)c(C)o2)cc1,.,.,-22,99
O=c1[nH]c2cccnc2n1-c1ccccc1,88,100,-8,96
CCN(CC)CCCNc1oc(/C=C/c2ccc(OC)c(OC)c2)nc1C#N,103,85,-45,95
O=C(Nc1ccc(-c2cn3c(n2)SCC3)cc1)c1ccccc1,84,72,-4,105
O=C(O)CCN1C(=O)c2ccc(F)cc2C1=O,98,80,-41,101
CCOC(=O)c1ccccc1NC(=O)CSc1nnc(CC)n2c1cc1occc12,105,79,.,104
COc1ccc(/C=C(\C#N)C(N)=O)cc1OC,89,79,-118,109

# The list itself, from the start:
SMILES,Sa growth inh,Sa growth inh second temp,HCMV NEC inh,GIV-Gai inh
COc1ccc(-c2nc(CN3CCN(C(=O)Nc4ccccc4)CC3)c(C)o2)cc1,.,.,-22,99
O=c1[nH]c2cccnc2n1-c1ccccc1,88,100,-8,96
CCN(CC)CCCNc1oc(/C=C/c2ccc(OC)c(OC)c2)nc1C#N,103,85,-45,95
O=C(Nc1ccc(-c2cn3c(n2)SCC3)cc1)c1ccccc1,84,72,-4,105
O=C(O)CCN1C(=O)c2ccc(F)cc2C1=O,98,80,-41,101
CCOC(=O)c1ccccc1NC(=O)CSc1nnc(CC)n2c1cc1occc12,105,79,.,104
COc1ccc(/C=C(\C#N)C(N)=O)cc1OC,89,79,-118,109
CCOC(=O)c1c(-c2ccccc2)oc2c1cc(OC(=O)c1ccc(OC)cc1)c1ccccc12,.,.,20,101
S=c1[nH]nc(SCc2cccs2)s1,63,54,-1,.
O=C(Cn1c(=O)n(-c2cccc(C(F)(F)F)c2)c(=O)c2sccc21)N1CCCc2ccccc21,135,89,.,103
COc1ccccc1C1CCN(S(=O)(=O)c2ccc(-c3csc(C)n3)s2)CC1,96,84,-13,103
Cc1ccc(C2CC(=O)N(Cc3ccc4c(c3)OCO4)C(=O)C2)cc1,.,.,-17,102
CC1=C(C(=O)O)SCCO1,103,89,.,100
COc1cccc(NC(=O)CN2C(=O)c3cccc4cccc2c34)c1,123,96,-19,106
CCOc1ccc(N=c2scc(-c3ccc(S(=O)(=O)N(CC)CC)cc3)n2CCCO)cc1,99,92,.,105
CCN1CCCC1CNC(=O)c1c(O)c2c([nH]c1=O)CCCC2 (configuration not stated),104,75,0,96
CC1OC(O[C@H]2/C=C/C=C/C=C/C=C/C=C/C=C/C=C/[C@H](C)[C@@H](O)[C@@H](C)[C@H](C)OC(=O)CC(O)CC(O)CCC(O)C(O)CC(O)CC3(O)C[C@H](O)C(C(=O)O)C(C2)O3)C(O)[C@H](N)C1O (some centres not stated),87,87,-18,.
COc1ccccc1-c1nc(S(=O)(=O)c2ccc(Cl)cc2)c(N2CCCCCC2)o1,99,88,-5,98
CCOC(=O)c1sc2ncnc(NCC3COc4ccccc4O3)c2c1C (configuration not stated),.,.,-19,105
Cc1oc(C(=O)O)cc1COc1ccc2c(C)c(Cc3ccccc3)c(=O)oc2c1C,97,73,.,109
Cc1noc(C)c1CC(=O)Nc1cccc(-n2cnnn2)c1,83,91,-16,.
CCCn1c(N)c(N(CCOC)C(C)=O)c(=O)n(CC(=O)Nc2cc(Cl)cc(Cl)c2)c1=O,89,90,-1,.
CCn1c(=O)n(CC)c2cc(S(=O)(=O)N3CCc4ccccc43)ccc21,118,91,0,.
CCCNc1nc(Cl)nc(Cl)n1,112,104,-1,105
CCCCCSc1nnc(-c2ccc(Br)cc2)o1,93,80,-34,100
CCOC(=O)N1CCC2(CC1)OC(=O)C(C)=C2C(=O)NCc1cccc(OC)c1,120,98,.,104
CC(C(=O)N1CCN(Cc2ccccc2)CC1)N1CCN(S(=O)(=O)c2cccc(F)c2)CC1 (configuration not stated),81,90,-28,.
CC1(C)OC(=O)C(=CNc2ccccc2O)C(=O)O1,75,42,-27,106
CNC(=O)CN1C(=O)COc2ccc(S(=O)(=O)N3CCCCCC3)cc21,105,89,-11,99
COc1cc(C(=O)Nc2ccccc2-c2nc3ccccc3s2)cc(OC)c1OC,.,.,-1,102
COc1ccc(-c2csc(-c3nc(-c4ccc(OC)c(F)c4)cs3)n2)cc1,.,.,-35,100
CCOC(=O)C(CC)Oc1ccc2c(=O)c(-c3ccc(Cl)cc3)coc2c1 (configuration not stated),88,90,-4,118
CCOc1ccc(OCc2ccc(C(=O)Nc3cc(OC)c(OC)c(OC)c3)o2)cc1,77,90,-36,105
O=C1N=c2ccc(Br)cc2=C1c1sc(=O)n(Cc2ccccc2)c1O,.,.,-28,100
Cn1c(SCc2ccccc2)nnc1-c1ccccc1,118,100,-11,106
O=C(NC(=O)c1ccccc1)Nc1cc(N2CCCCC2)ncn1,108,99,-4,103
COc1ccc(-c2cnn(-c3ccccc3)c2N)cc1OC,102,76,.,103
CC(C)Sc1ncc(Cl)c(C(=O)Nc2sc3c(c2C(=O)NCC2CCCO2)CCC3)n1 (configuration not stated),.,.,-16,96
O=C(NC1CCCC1)C(Cc1ccccc1)NS(=O)(=O)c1cccs1 (configuration not stated),101,94,2,97
O=C(Cn1ccn2nc(-c3ccc4c(c3)OCO4)cc2c1=O)NC1CCCCC1,.,.,-31,101
Cc1noc(-c2cc(S(=O)(=O)NC3CCCC3)c(C)s2)c1C,.,.,-38,105
COc1cccc(OCc2nc3ccccc3c(=O)n2N)c1,92,82,1,102
CCOC(=O)N1CCC(NC(=O)c2ccc(CO)c(C(=O)NC3CCN(C(=O)OCC)CC3)c2)CC1,94,89,-17,104
O=C(NC1CCCC1)c1c(F)c(F)c(F)c(F)c1F,99,101,2,105
CCOc1ccc(CCNC(=O)c2cnc3sc(N4CCCCCC4)nn3c2=O)cc1,91,87,.,103
O=C(Nc1ccc2oc(-c3cccnc3)nc2c1)c1cccnc1Cl,93,84,-18,106
CCCc1ccc(-c2nc(-c3ccccc3)no2)cc1,103,98,0,107
CCOc1ncccc1C(=O)OCc1nc2ccccc2s1,68,74,-20,.
Cc1ccccc1C(=O)c1ccc2c(c1)n(C)c(=O)n2C,110,77,-8,.
CCOc1cc(CNn2cnnc2)cc(Cl)c1OCC(=O)NC(C)(C)C,91,94,-9,.
Cc1ccc(S(=O)(=O)N2CCc3cc(C(=O)NCC4CCCO4)ccc32)cc1 (configuration not stated),.,.,-6,102
N#CCSc1ccc2c(c1)OCCO2,91,97,-5,.
CCc1ccc(NC(=O)Cn2c(=O)n(CCCCC(=O)NCc3ccccc3Cl)c(=O)c3ccccc32)cc1,118,86,6,99
COc1cccc(C2C3=C(CC(c4ccccc4)CC3=O)Nc3onc(C)c32)c1 (configuration not stated),.,.,-7,102
O=C(O)CC1(CC(=O)Nc2ccccc2O)CCCC1,99,93,-24,.
CC1(C)Cc2nc3sc4c(NCCO)ncnc4c3cc2CO1,112,92,-19,103
Cc1ccc(NC(=O)C2CCCN(S(=O)(=O)c3cccc4cccnc34)C2)cc1 (configuration not stated),85,104,-9,104
CNC(=O)c1cc2c(=O)n3ccccc3nc2n1C,107,100,-20,.
COc1ccccc1NC(=O)Cn1c(=O)n(Cc2cccs2)c(=O)c2cccnc21,98,82,8,109
CCOc1ccc(C(Nc2nc(C)cc(C)n2)c2cc(C)sc2NC(=O)c2ccccc2)cc1 (configuration not stated),.,.,0,102
# New compounds follow:
SMILES,Sa growth inh,Sa growth inh second temp,HCMV NEC inh,GIV-Gai inh
O=C(CCN1C(=O)COc2ccccc21)NCCN1CCc2ccccc2C1,134,81,.,103
COc1ccc(NC(=S)Nc2ccccc2)cc1,95,86,-4,.
O=C(Nc1nnc(C2CC2)s1)c1cc(Cl)sc1Cl,77,69,-13,94
COc1ccc(-n2c(-c3ccco3)nc3c(cnn3-c3ccccc3Cl)c2=O)cc1,97,108,-13,105
CCOc1cccc2cc(C(=O)NC3CC(C)(C)NC(C)(C)C3)c(=O)oc12,77,81,-58,.
O=C1CSc2nnc(-c3cccs3)n21,96,93,-19,105
COC(=O)C(NC(=O)c1cccnc1Cl)C(C)C (configuration not stated),110,94,2,.
O=C(NCc1csc(-c2cccs2)n1)Nc1cccc(Cl)c1,82,81,-38,106
Cc1ccc(-c2nn(CCC(=O)NC(C)C)c(=O)c3ccccc23)cc1,90,84,-15,104
CC1=C(C(=O)OC2CCCC2)C(c2ccccc2OCc2ccccc2)NC(=O)N1C (configuration not stated),.,.,-13,103
Cc1ccccc1CNC(=O)C(C)n1nc(C)n2c(cc3occc32)c1=O (configuration not stated),106,98,-14,98
COCCNC(=O)C1CCN(C(=O)c2cc3sccc3n2Cc2ccc(Cl)cc2)CC1,90,88,4,107
Cc1cccc(CSc2nnc(CCC(=O)O)c(=O)[nH]2)c1,87,90,-30,97
CCOc1ccc(CNCc2c(C(=O)O)n(Cc3ccccc3C)c3cc(OC)ccc23)cc1OC,84,91,.,113
CC(C)OC(=O)[C@@H]1CCN[C@@H]1c1ccccc1,100,96,.,106
Cc1nc2cccnc2n1-c1cc(C(=O)NCc2cccnc2)ccc1Cl,.,.,-5,105
O=C(c1oc(=O)c2ccccc2c1-c1ccccc1)N1CCN(C2CCCCC2)CC1,105,90,2,104
Cc1ccc(S(=O)(=O)N(C)Cc2nc(-c3ccc(Cl)cc3)no2)cc1,96,74,.,103
CCC(Sc1nc2ccncc2[nH]1)C(=O)Nc1ccc(F)cc1 (configuration not stated),99,78,6,105
CCOC(=O)CNC(=O)Cn1c(=O)c2c(OCC)c(C)cnc2n(C)c1=O,.,.,-1,104

# Reformatted: results already given
CC1(C)OC(=O)C(=CNc2ccccc2O)C(=O)O1
  Sa growth inh: 75; Sa growth inh second temp: 42; HCMV NEC inh: -27; GIV-Gai inh: 106
CNC(=O)CN1C(=O)COc2ccc(S(=O)(=O)N3CCCCCC3)cc21
  Sa growth inh: 105; Sa growth inh second temp: 89; HCMV NEC inh: -11; GIV-Gai inh: 99

# Reprinted at random: 2 compounds from above, in no set order.
SMILES,Sa growth inh,Sa growth inh second temp,HCMV NEC inh,GIV-Gai inh
CCOc1cccc2cc(C(=O)NC3CC(C)(C)NC(C)(C)C3)c(=O)oc12,77,81,-58,.
Cc1nc2cccnc2n1-c1cc(C(=O)NCc2cccnc2)ccc1Cl,.,.,-5,105

# Following part:
SMILES,Sa growth inh,Sa growth inh second temp,HCMV NEC inh,GIV-Gai inh
CCOC(=O)N1CCN(C(=O)CCN2C(=O)/C(=C/C=C/c3ccccc3)SC2=S)CC1,92,79,.,102
CNC(=O)Cc1ccc(-n2c(=O)c3ccccc3n(CC(=O)Nc3ccc(F)c(Cl)c3)c2=O)cc1,.,.,6,102
COc1ccc(C(C)N(C)CCC(=O)O)cc1OC (configuration not stated),102,94,-7,.
COC(=O)C1CCN(C(=O)C(C)Oc2ccccc2)CC1 (configuration not stated),102,93,-1,.
O=C1N/C(=N\c2ccccn2)SC1Cc1ccccc1 (configuration not stated),84,84,-15,102
COc1ccc2sc(N(CCN(C)C)C(=O)c3ccccc3Cl)nc2c1,.,.,-2,103
Cc1ccccc1OCC(=O)Nc1ccc2nc(SCC(=O)N(C)c3ccccc3)sc2c1,105,71,-17,98
CC(C)=NNC(=O)Cc1c[nH]c2cccc(OCC(O)CNC(C)(C)C)c12 (configuration not stated),84,87,-26,90
CCCCn1c(C2CC(=O)N(Cc3ccccc3)C2)nc2ccccc21 (configuration not stated),82,92,-23,.
CC(C)[C@H](N)C(=O)OCCOCn1cnc2c(=O)[nH]c(N)nc21,97&72,91&42,-39,94
CC(C)Cn1c(SCC(=O)c2ccc(Cl)cc2)nc2ccccc2c1=O,99,85,-6,.
Cc1ccc(NC(=O)Cn2c(-c3nonc3N)nc3ccccc32)cc1Cl,93,88,-32,98
COc1cccc(NC(=O)CSc2nc3ccccc3n2C(C)=O)c1,.,.,-25,99
O=c1[nH]nc(SCCS(=O)(=O)c2ccc(F)cc2)n1-c1ccccc1,91,78,-10,101
COc1cc2c(cc1OC)C(C)N(C(=O)c1cc3c(Cl)nc4ccc(C)cc4c3s1)CC2 (configuration not stated),94,91,.,103
COc1ccc2c(c1)CC(C(=O)Nc1cccc(C)c1C)CO2 (configuration not stated),87,95,.,98
CCN(CC)C(=O)c1cn(C)c(=O)c2cc(OC)c(OC)cc12,92,72,.,102
CCN(C(=O)Cn1cnc2c1c(=O)n(C)c(=O)n2C)c1ccccc1C,103,92,-37,107
O=C(O)CCCn1c2ccccc2c2cn[nH]c(=O)c21,95,89,.,113
CC(C(=O)N1c2ccccc2CCc2ccccc21)n1nnc(-c2ccc(N(C)C)cc2)n1 (configuration not stated),105,104,8,108
Cc1ccc(N(C(=O)c2ccc(Cl)cc2)C2C=CS(=O)(=O)C2)cc1 (configuration not stated),93,92,9,.
CC(=O)Nc1nc(C)cc2c1c(=O)oc1ccccc12,125,80,.,106
Cc1ccccc1NC(=O)CSc1ncc2c(n1)-c1ccccc1N(C)S2(=O)=O,96,94,.,102
